Cruzain noTriton: blocks cruzain activity in detergent-free assay | actives 2.3% (n = 200,000) | purified cruzain, Z-FR-AMC fluorescence, no detergent | Potency, µM, without a hit: max response, negative = inhibition, usual class: inhibitors | P25779; active = well fitted curve in the direction sought with a large enough effect; inconclusive = small, poorly fitted or top-dose-only effect, or another doubt; inactive = no such curve, though single readings can be large; an effect the other way counts as inactive or inconclusive;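 note: plate controls were enzyme without inhibitor for no effect and buffer without enzyme for full effect; nearly all actives have a fitted effect of over 40% in size; top concentration of the series not given in the record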
Target sequence (P25779 123-467 limits assumed): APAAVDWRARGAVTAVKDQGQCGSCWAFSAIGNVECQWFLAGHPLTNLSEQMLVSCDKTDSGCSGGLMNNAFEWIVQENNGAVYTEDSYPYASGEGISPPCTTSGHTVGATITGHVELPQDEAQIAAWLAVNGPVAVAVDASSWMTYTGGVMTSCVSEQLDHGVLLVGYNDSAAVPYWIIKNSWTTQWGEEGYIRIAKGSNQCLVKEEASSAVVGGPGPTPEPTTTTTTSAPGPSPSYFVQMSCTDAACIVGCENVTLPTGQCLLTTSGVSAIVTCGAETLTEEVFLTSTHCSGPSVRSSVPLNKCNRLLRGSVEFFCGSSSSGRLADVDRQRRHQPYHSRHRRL
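Detergent-free condition (0.00005% Triton X-100) in acetate buffer pH 5.5 with DTT. 1.5 nM enzyme and compound were pre-mixed 15 min, then 2 uM Z-FR-AMC substrate added; reaction progress from fluorescence change between first and third reads (60 s).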
LASV entry inh: blocks Lassa virus binding to or entry into cells. Lassa virus pseudotype entry inhibition, cell reporter; control for the full effect not named in the record. Potency, µM (top dose mostly 37.9 µM), for the others: at the highest dose activity change, negative = inhibition, hits mostly inhibitors. actives 1.2% (n = 300,000); active means well fitted inhibition curve with a large enough effect; inconclusive means small, poorly fitted or top-dose-only effect, or effect the other way; inactive means flat fitted curve, though single readings scatter; tested in HEK293 cells; note: % is set by controls: 0 for no effect and ±100 for the full control effect; nearly all actives have a fitted effect of over 50% in size; luciferase read-out
NS1 function inh: inhibitors of influenza NS1 protein function; S. cerevisiae slowed by influenza A NS1, growth recovery by OD600; Potency, µM (highest dose often 46.1 µM), for inactives: at the highest dose activity, positive = more growth; actives 0.4% (n = 270,000); note: actives are rising curves; nearly all actives have a fitted effect of over 50% in size
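S. cerevisiae expressing influenza A NS1, grown in glucose, washed, then diluted 1:100 into pH 6.0 -URA galactose medium with 23 nl compound. Growth recovery read as OD600; NS1-free strain serves as control.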
RE007 growth inh: less growth of the S. pombe RE007 Vpr strain; Potency, µM (top dose mostly 92.2 µM), for inactives: top-dose activity change, negative = less growth; S. pombe RE007 Vpr strain, BacTiter-Glo ATP luminescence, 24 h; control for the full effect not named in the record; actives 0.21% (n = 360,000); active = well fitted falling curve with a large enough effect; inconclusive = small, poorly fitted or top-dose-only effect; inactive = no such curve, though single readings can be large or run the other way;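 note: % is set by controls: 0 for no effect and ±100 for the full control effect; nearly all actives have a fitted effect of over 50% in size; the assay follows cell death caused by Vpr and the record does not say whether a fall means rescue or toxicity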
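Fission yeast RE007 carrying one integrated HIV-1 vpr copy, seeded at OD 0.01 in PMG+AL medium with 23 nL pinned compound. Grown 24 h at 30 degrees; viability read by BacTiter-Glo luminescence after 5 min.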
Cruzain Triton: cruzain (T. cruzi) inhibition with detergent; purified cruzain, Z-FR-AMC fluorescence, 0.01% Triton; actives 0.43% (n = 200,000); Potency, µM, inactives show max response, negative = inhibition, actives largely listed as inhibitors; AID 1478; active = well fitted curve in the direction sought with a large enough effect; inconclusive = small, poorly fitted or top-dose-only effect, or another doubt; inactive = no such curve, though single readings can be large; an effect the other way counts as inactive or inconclusive;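 note: plate controls were neutral wells for no effect and buffer without enzyme for full effect; nearly all actives have a fitted effect of over 40% in size; top concentration of the series not given in the record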
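Cysteine protease activity tested under reducing, mildly acidic conditions (100 mM sodium acetate pH 5.5, 5 mM DTT) plus 0.01% Triton X-100. Cruzain 1.5 nM; substrate Z-FR-AMC 2 uM; 15 min compound preincubation at room temperature.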
SARS PLP yeast: SARS-CoV PLP inhibition in yeast | S. cerevisiae expressing SARS-CoV PLpro, growth rescue; control for the full effect not named in the record | Potency, µM (top dose mostly 32.9 µM), for inactives: at the top dose activity, positive = growth rescue | actives 0.19% (n = 330,000) | AID 485353; note: 0% is about no effect; nearly all actives have a fitted effect of over 55% in size; growth read by luminescence after 48 h
2A StopGo: lowers the luciferase signal of an FMDV 2A StopGo reporter; Potency, µM (titrated, usually from 57.9 µM), inactives show top-dose signal change, negative = less light; actives 1.2% (n = 410,000); human cells with a luciferase reporter of 2A StopGo recoding; control for the full effect not named in the record; active = well fitted falling curve with a large enough effect; inconclusive = small, poorly fitted or top-dose-only effect; inactive = no such curve, though single readings can be large or run the other way; tested in HEK293T cells; note: % is set by controls: 0 for no effect and ±100 for the full control effect; nearly all actives have a fitted effect of over 45% in size; luciferase light after 4 h
MARV entry inh: Marburg virus entry inhibition | Marburg virus pseudotyped entry inhibition, cell reporter; control for the full effect not named in the record; about a third of the inactives were read at about 46 µM | Potency, µM (titrated, usually from 37.8 µM), without a hit: at the top dose activity change, negative = inhibition, actives largely listed as inhibitors | actives 1.8% (n = 300,000) | AID 540276; active = well fitted inhibition curve with a large enough effect; inconclusive = small, poorly fitted or top-dose-only effect, or effect the other way; inactive = flat fitted curve, though single readings scatter; tested in HEK293 cells; about a fifth of its hits are not listed in these tables; note: % is set by controls: 0 for no effect and ±100 for the full control effect; luciferase read-out
Starred values were filed as active, the others as inactive; ? = inconclusive; . = no result given; & = joins results of further samples; [ ] = remark or other dose. Unless noted, calls come from the whole dose curve; as a rule, active means well fitted rising curve with a large enough effect; inconclusive means small, poorly fitted or top-dose-only effect; inactive means no such curve, though single readings can be large or run the other way. Potency is the fitted concentration of half-maximal effect.

SMILES	Cruzain noTriton	LASV entry inh	NS1 function inh	RE007 growth inh	Cruzain Triton	SARS PLP yeast	2A StopGo	MARV entry inh
COC(=O)c1sc(-c2ccc(Cl)cc2)cc1N	.	26%	-4%	-7%	.	-1%	62%[activator]	39%
O=C(O)c1cccc(NC(=S)NC(=O)c2cccc(OCc3ccccc3)c2)c1	.	.	-2%	11%	.	0%	25%	.
O=C(NC1CCN(C(=O)NCc2ccccc2)CC1)c1ccco1	-4%	14%	1%	5%	-0.2%	0%	-5%	27%
COc1ccccc1CNCC(=O)NCc1ccc(C)cc1	.	.	-2%	15%	.	1%	-6%	.
CC(=O)Nc1ccc(S(=O)(=O)NCC2CCC(C(=O)NCCc3ccccc3)CC2)cc1 (configuration not stated)	-3%	-3%[46.1 µM]	-8%	-13%	1.5%	0%	3%&-9%	.
COc1cccc(-c2nnn(CC(=O)Nc3ccc(C)cc3C)n2)c1OC	?	-2%	11%	-1%	6.3%	1%	-15%	-11%
CC(C)(C)c1ccc(S(=O)(=O)N2CC(=O)Nc3ccccc32)cc1	-4%	7%	3%	-1%	-7.4%	0%	-8%	16%
Cc1cc2c(Nc3ccccc3)ncnc2s1	.	-18%[46.1 µM]	1%	-25%	.	-1%	4%	?
Cn1c(=O)n(C)c2cc(S(=O)(=O)NCCO)ccc21	-3%	0%	10%	4%	5.9%	3%	.	7%
Cc1c(C(=O)NNS(=O)(=O)c2ccccc2Cl)sc(=S)n1C	-5%	13%	28%	12%	-8.2%	10%	-4%	7%
Cc1ccccc1-n1cnc2c(sc3nc(N4CCOCC4)c4c(c32)CCCC4)c1=O	.	?	11%	-1%	.	1%	-18%	?
CCn1ncc(Br)c1C(=O)Nc1ccc(C(C)C)cc1	.	-13%[46.1 µM]	3%	5%	.	-2%	8%	13µM*
CCC1CCCCN1c1nc(-c2ccncc2)nc2ccccc12 (configuration not stated)	4%	?	-58%	10%	-19%	-29%	?	9.2µM*
CCOC(=O)C(CC(=O)O)NCc1ccco1 (configuration not stated)	.	.	-1%	-1%	.	1%	-2%	.
COc1ccc(NC(=O)CSCc2ccc(C#N)cc2)c(OC)c1	.	0%	11%	17%	.	-1%	-11%	-15%
CCCCn1nc(NC(=O)c2cccs2)c2cc3ccccc3nc21	2%	?	-10%	-14%	-6.4%	-21%	-12%	16µM*
Cn1nc(C(=O)NC2CCCCC2)c2c1-c1ccccc1S(=O)(=O)C2	.	.	16%	0%	.	2%	3%	.
CCCn1c(=S)[nH]c2cc(C(=O)N3CCCC(C(=O)OCC)C3)ccc2c1=O (configuration not stated)	-1%	-30%	-19%	21%	-4.9%	5%	18µM*	?
COc1cccc2cc(C(=O)N3C(C)CCCC3C)c(=O)oc12 (configuration not stated)	-8%	2%	-3%	-7%	-2.0%	-14%	-3%	0%
Cc1cc2c(cc1C)N(C(=O)CSC1=NCCS1)C(C)(C)c1ssc(=S)c1-2	?	-31%[14.3 µM]	?	-11%	0.4%	-7%	?	-42%
CC(=O)N(c1ccc(Cl)cc1)c1cn(C(C)=O)c2ccccc12	.	-28%[46.1 µM]	-3%	6%	.	0%	-16%	?
Cc1cc(C2=NNC(=Nc3ccccc3)SC2)c(C)n1C	.	.	7%	4%	.	0%	41%[activator]	.
CCCCCCNC(=O)N[C@@H](Cc1ccc(O)cc1)C(=O)NCCC[C@H]1CN2C(=NC[C@H]2C)N1CC1CCC1	.	.	5%	-21%	.	0%	72%[activator]	.
Cc1c2cnn(-c3ccccc3)c(=O)c2c(C)n1C(C)C(=O)Nc1ccccc1C(F)(F)F (configuration not stated)	22%	12%[46.1 µM]	.	.	-5.1%	.	?	-23%[46.1 µM]
O=C(CN(C(=O)CNC(=O)c1ccco1)c1ccccc1F)NC1CCCCC1	.	0%	13%	7%	.	10%	2%	?
O=C(NCc1ccco1)C1CCN(S(=O)(=O)c2cccc3cccnc23)CC1	-7%	.	-17%	-3%	3.0%	-9%	-4%	.
Cn1cc(/C=C/C(=O)N2CCCC(C(=O)c3cccc(C(F)(F)F)c3)C2)cn1 (configuration not stated)	.	?	-1%	-9%	.	0%	11%	2%[46.1 µM]
CCNS(=O)(=O)c1cc(OC)c(Cl)cc1OC	-17%	?	-7%	-12%	-2.2%	-6%	84%[activator]	4%
Cc1nn(C)c(Cl)c1CN1CCC(n2nccc2NC(=O)C2CCCC2)CC1	.	22%[46.1 µM]	7%	4%	.	5%	8%	-18%[46.1 µM]
O=C(Nc1ccc2c(c1)OCO2)C1CCCN1C(=O)OCc1ccccc1 (configuration not stated)	5%	5%	3%	7%	1.4%	-3%	-24%	2%

Part of the list above, set out differently:
Compound | Cruzain noTriton | LASV entry inh | NS1 function inh | RE007 growth inh | Cruzain Triton | SARS PLP yeast | 2A StopGo | MARV entry inh
COc1cccc(-c2nnn(CC(=O)Nc3ccc(C)cc3C)n2)c1OC | ? | -2% | 11% | -1% | 6.3% | 1% | -15% | -11%
CC(C)(C)c1ccc(S(=O)(=O)N2CC(=O)Nc3ccccc32)cc1 | -4% | 7% | 3% | -1% | -7.4% | 0% | -8% | 16%

New compounds follow.
SMILES	Cruzain noTriton	LASV entry inh	NS1 function inh	RE007 growth inh	Cruzain Triton	SARS PLP yeast	2A StopGo	MARV entry inh
CC(=O)N(/N=C1/C(=O)Nc2ccccc21)c1ccccc1	.	18%[46.1 µM]	-11%	1%	.	6%	15%	20%[46.1 µM]
C=CCn1c(=O)c2ccc(C(=O)NCc3ccccc3)cc2n(Cc2ccc(C)cc2)c1=O	?	3%	18%	9%	5.0%	-2%	-4%	0%
Cc1ccc(NC(=O)c2ccc(S(=O)(=O)NCC3CCCO3)cc2)cc1C (configuration not stated)	.	5%	3%	6%	.	0%	49%[activator]	?
COC(=O)N/N=C/c1ccccc1OCCOc1ccc(OC)cc1	.	-5%[46.1 µM]	-55%	1%	.	-1%	-14%	?
CCn1c(N2CCN(CC(=O)c3c(C)n(C)c4ccc(OC)cc34)CC2)nc2c1c(=O)[nH]c(=O)n2C	.	?	11µM*	-6%	.	-1%	?	0%[14.2 µM]
CCCCOc1cccc(C(=O)Nc2cc3nn(-c4ccc(F)cc4)nc3cc2C)c1	-8%	?	.	.	-0.2%	.	53%[activator]	?
O=[N+]([O-])c1ccc(N2CCOCC2)cc1	.	-1%	.	-2%	.	.	11%	?
Cc1ccc(N2CC(C(=O)N3CCC(c4nc5ccccc5[nH]4)CC3)CC2=O)cc1C (configuration not stated)	.	7%	.	-16%	.	-4%	?	-9%
Nc1c(C(=O)O)cnc2c(-c3ccc(Cl)cc3)cnn12	.	?	.	-26%	.	-1%	17%	?
CC(=O)N1c2ccc(S(=O)(=O)N3CCN(c4cccc(Cl)c4)CC3)cc2CC1C (configuration not stated)	-11%	-8%[46.1 µM]	.	.	2.8%	.	0%	-1%[46.1 µM]
COc1ccc2[nH]c(=O)c(CN(CCc3cccc(C)c3)C(C)=O)cc2c1	-2%	-6%	-3%	0%	-2.0%	6%	-26%	13%
COCCN1C(=O)c2oc3cc(C)cc(C)c3c(=O)c2C1c1cccc(O)c1 (configuration not stated)	4%	6%[46.1 µM]	.	.	-4.9%	.	-9%	-24%[46.1 µM]
COc1ccc(NC(=O)[C@@H]2[C@@H]3C(=O)N(C4CCCCC4)C(=O)[C@@H]3C3c4ccccc4C=CN32)cc1 (some centres not stated)	16µM*	5%	?	25%	-1.9%	-4%	0%	-21%
COC(=O)C1=C(CSc2nc3c(cc2C#N)CN(C)CC3)OC(N)=C(C#N)C1c1ccc(F)cc1 (configuration not stated)	-13%	6%	29%	-14%	-15%	-14%	-1%	-30%
COc1ccc(CN2CCN(CCCCOc3ccc(Cl)cc3)CC2)c(OC)c1OC	.	-12%[46.1 µM]	-6%	-17%	.	1%	-27%	?
O=C(CN1C(=O)c2ccccc2C1=O)N1CCOCC1	-12%	13%	?	1%	2.8%	?	-21%	-14%
CCc1c(C)c2ccc(O)c(CN3CCCC3)c2oc1=O	.	?	1%	2%	.	1%	-3%	11%[46.1 µM]
CC(N)=NCCC[C@H](N)C(=O)O	4%	.	.	.	-1.1%	.	1%	2%
Cc1cc2n(n1)C(c1c[nH]c3ccccc13)Nc1ccccc1-2 (configuration not stated)	4%	19%	-72%	-3%	-11%	-36%	-3%	?
COc1ccc2nc(/C=N/NC(=O)CCNC(=O)OC(C)(C)C)ccc2c1	.	-6%	-9%	-4%	.	-3%	-2%	2%
O=C(O)c1cccc(NS(=O)(=O)c2ccc(C3CCCCC3)cc2)c1	.	?	10%	0%	.	0%	17%	?
O=C(N/N=C/c1c[nH]c2ccccc12)c1cccc(O)c1	.	.	3%	-3%	.	0%	48%[activator]	.
CC(C)CNC(=O)CN1C(=O)NC2(CCc3ccccc32)C1=O (configuration not stated)	.	-15%	3%	34%	.	9%	5%	7%[46.1 µM]
O=C(CN1C(=O)NC2(CCCCCC2)C1=O)c1ccc(F)cc1	.	18%[46.1 µM]	.	14%	.	.	24%	6%
Cc1c(NC(=O)COC(=O)C2CC3C=CC2C3)c(=O)n(-c2ccccc2)n1C (configuration not stated)	-5%	0%	4%	-11%	3.7%	-7%	-9%	-5%
O=C1/C(=C/c2c[nH]c3ccccc23)CCC/C1=C\c1c[nH]c2ccccc12	25µM*	-38%	-33%	35%	-4.4%	-65%	2%	?
CCOC(=O)/C(=C\c1cccnc1)C(=O)c1cc(C(C)=O)c(Nc2ccccc2)s1	?	?	-134%	29%	-4.0%	-51%	4µM*	?
CC(C)c1nn2c(=O)cc(COC(=O)Cc3ccccc3)nc2s1	8%	?	.	.	-2.1%	.	-10%	.
CCSc1nnc(NC(=O)c2cccc3ccccc23)s1	?	.	6%	1%	-2.7%	-1%	-13%	.
COc1cccc(Oc2nc(-c3ccncc3)nc3ccccc23)c1	.	?	-1%	-28%	.	0%	?	?
O=C(NCc1ccccc1F)C1CCN(c2nnc(-n3cccc3)s2)CC1	-18%	?	.	.	-3.8%	.	15%	.
CC(C)n1c(NCc2ccccc2O)nc2ccccc21	.	-8%[46.1 µM]	14%	?	.	5%	-5%	12%[46.1 µM]

Screens deposited in PubChem BioAssay by National Center for Advancing Translational Sciences (NCATS).
